StopGo reporter – lowers the luciferase signal of an FMDV 2A StopGo reporter; Potency, µM (top dose mostly 57.9 µM), without a hit: at the highest dose signal change, negative = less light; human cells with a luciferase reporter of 2A StopGo recoding; control for the full effect not named in the record; 410,000 tested, 1.2% active; active = well fitted falling curve with a large enough effect; inconclusive = small, poorly fitted or top-dose-only effect; inactive = no such curve, though single readings can be large or run the other way; tested in HEK293T cells; further: on the % scale 0 is the no-effect control and ±100 the full control effect; nearly all actives have a fitted effect of over 45% in size; luciferase light after 4 h
Marburg entry inh – Marburg virus entry inhibition. AID 540276. Marburg virus pseudotyped entry inhibition, cell reporter; control for the full effect not named in the record; about a third of the inactives were read at about 46 µM. Potency, µM (series often up to 37.8 µM), inactives show at the top dose activity change, negative = inhibition, usual class: inhibitors. 300,000 tested, 1.8% active; active = well fitted inhibition curve with a large enough effect; inconclusive = small, poorly fitted or top-dose-only effect, or effect the other way; inactive = flat fitted curve, though single readings scatter; tested in HEK293 cells; about a fifth of its hits are not listed in these tables; further: on the % scale 0 is the no-effect control and ±100 the full control effect; luciferase read-out
Cruzain Triton – cruzain (T. cruzi) inhibition with detergent; P25779; purified cruzain, Z-FR-AMC fluorescence, 0.01% Triton; Potency, µM, without a hit: max response, negative = inhibition, most hits filed as inhibitors; 200,000 tested, 0.43% active;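 further: plate controls were neutral wells for no effect and buffer without enzyme for full effect; nearly all actives have a fitted effect of over 40% in size; top concentration of the series not given in the record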
Target sequence (P25779 123-467 limits assumed): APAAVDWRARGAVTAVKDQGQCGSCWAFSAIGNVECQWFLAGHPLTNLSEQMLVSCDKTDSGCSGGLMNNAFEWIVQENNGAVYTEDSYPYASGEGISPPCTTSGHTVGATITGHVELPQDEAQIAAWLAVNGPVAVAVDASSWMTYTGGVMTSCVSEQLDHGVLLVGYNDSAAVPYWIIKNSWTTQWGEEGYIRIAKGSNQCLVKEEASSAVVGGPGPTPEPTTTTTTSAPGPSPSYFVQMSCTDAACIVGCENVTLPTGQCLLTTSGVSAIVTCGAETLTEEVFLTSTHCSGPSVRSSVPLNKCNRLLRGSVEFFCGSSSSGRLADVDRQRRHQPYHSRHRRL
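Cruzain (1.5 nM) preincubated 15 min at RT with compound in 100 mM sodium acetate pH 5.5, 5 mM DTT, 0.01% Triton X-100. Reaction started with 2 uM Z-FR-AMC; AMC fluorescence (ex 360/em 450 nm) change over 60 s gave rate.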
Cruzain noTriton – blocks cruzain activity in detergent-free assay. P25779. purified cruzain, Z-FR-AMC fluorescence, no detergent. Potency, µM, without a hit: max response, negative = inhibition, actives largely listed as inhibitors. 200,000 tested, 2.3% active. AID 1476;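 further: plate controls were enzyme without inhibitor for no effect and buffer without enzyme for full effect; nearly all actives have a fitted effect of over 40% in size; top concentration of the series not given in the record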
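Purified cruzain at 1.5 nM, pre-incubated 15 min with compound at room temperature in 100 mM sodium acetate pH 5.5, 5 mM DTT, 0.00005% Triton X-100. Reaction started with 2 uM Z-FR-AMC; AMC fluorescence increase over 60 s gives rate.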
NS1 inh – blocks influenza NS1 protein function; S. cerevisiae slowed by influenza A NS1, growth recovery by OD600; Potency, µM (doses to about 46.1 µM), inactives show at the top dose activity, positive = more growth; 270,000 tested, 0.4% active; active means well fitted rising curve with a large enough effect; inconclusive means small, poorly fitted or top-dose-only effect; inactive means no such curve, though single readings can be large or run the other way; further: nearly all actives have a fitted effect of over 50% in size
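Compounds were scored for reversing the slow growth caused by influenza A NS1 in S. cerevisiae, measured by optical density at 600 nm. Assay medium contained 2% galactose at pH 6.0; NS1-free yeast of the same strain were the positive control.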
SARS PLP yeast – inhibitors of SARS-CoV papain-like protease in yeast; S. cerevisiae expressing SARS-CoV PLpro, growth rescue; control for the full effect not named in the record; Potency, µM (doses to about 32.9 µM), inactives show top-dose activity, positive = growth rescue; 330,000 tested, 0.19% active; active means well fitted rising curve with a large enough effect; inconclusive means small, poorly fitted or top-dose-only effect; inactive means no such curve, though single readings can be large or run the other way; further: 0% is about no effect; nearly all actives have a fitted effect of over 55% in size; growth read by luminescence after 48 h
LASV entry inh – inhibitors of Lassa virus binding or cell entry. 300,000 tested, 1.2% active. Lassa virus pseudotype entry inhibition, cell reporter; control for the full effect not named in the record. Potency, µM (highest dose often 37.9 µM), for inactives: at the highest dose activity change, negative = inhibition, usual class: inhibitors; active means well fitted inhibition curve with a large enough effect; inconclusive means small, poorly fitted or top-dose-only effect, or effect the other way; inactive means flat fitted curve, though single readings scatter; tested in HEK293 cells; further: on the % scale 0 is the no-effect control and ±100 the full control effect; nearly all actives have a fitted effect of over 50% in size; luciferase read-out
RE007 growth inh – less growth of the S. pombe RE007 Vpr strain. S. pombe RE007 Vpr strain, BacTiter-Glo ATP luminescence, 24 h; control for the full effect not named in the record. AID 651644. Potency, µM (top dose mostly 92.2 µM), inactives show top-dose activity change, negative = less growth. 360,000 tested, 0.21% active; active = well fitted falling curve with a large enough effect; inconclusive = small, poorly fitted or top-dose-only effect; inactive = no such curve, though single readings can be large or run the other way;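 further: on the % scale 0 is the no-effect control and ±100 the full control effect; nearly all actives have a fitted effect of over 50% in size; the assay follows cell death caused by Vpr and the record does not say whether a fall means rescue or toxicity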
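Fission yeast RE007 carrying one integrated HIV-1 vpr copy, seeded at OD 0.01 in PMG+AL medium with 23 nL pinned compound. Grown 24 h at 30 degrees; viability read by BacTiter-Glo luminescence after 5 min.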
Starred values were filed as active, the others as inactive; & = joins results of further samples; [ ] = dose if it differs, or a comment. Unless noted, the call rests on the fitted dose curve; in most records, active means well fitted curve in the direction sought with a large enough effect; inconclusive means small, poorly fitted or top-dose-only effect, or another doubt; inactive means no such curve, though single readings can be large; an effect the other way counts as inactive or inconclusive. Potency means the concentration at half of the fitted maximal effect.

CC(C)OC(=O)C1C2C=CC3(CN(CC4CCCO4)C(=O)C13)O2 (stereo unspecified) was read as StopGo reporter 7%, Marburg entry inh 4%&4%, Cruzain Triton 5.0%, Cruzain noTriton 5%, NS1 inh 6%&3%, SARS PLP yeast 0%&1%, LASV entry inh 21% and RE007 growth inh -2%.
Screening CC(C)C[C@H](NC(=O)c1nc[nH]c1C(=O)N1CCN(c2ccccc2)CC1)C(=O)OC(C)(C)C returned StopGo reporter 0%, NS1 inh -2%, SARS PLP yeast 0% and RE007 growth inh 0%.
`Cc1cccc(-c2nnc(SCC(=O)N3CCCCC3)o2)c1` gave StopGo reporter 31%[activator], Marburg entry inh inconclusive, Cruzain Triton 1.4%, Cruzain noTriton 16% and LASV entry inh 19%[46.1 µM].
`Cc1c(C)c2cc3c(c(C)c2oc1=O)OCN(CCc1ccc(F)cc1)C3` gave StopGo reporter 12%, Marburg entry inh 8%[46.1 µM], Cruzain Triton 0.9%, Cruzain noTriton -6% and LASV entry inh 15%[46.1 µM].
`CCc1ccc(NC(=O)Nc2c(C)n(C)n(-c3ccccc3)c2=O)cc1` gave StopGo reporter -7%, Marburg entry inh -2%[46.1 µM], SARS PLP yeast 0%, LASV entry inh 0% and RE007 growth inh -4%.
`CCC(C)c1ccc(NC(=O)C2CC3CCC2C3)cc1` (stereo unspecified) gave StopGo reporter 32%[activator], Marburg entry inh inconclusive, LASV entry inh inconclusive and RE007 growth inh -3%.
Screening Cc1[nH]c2ccc(F)cc2c(=O)c1SC(F)(F)C(F)C(F)(F)F (stereo unspecified) returned StopGo reporter -21%, Marburg entry inh -14%, Cruzain Triton -4.9%, Cruzain noTriton -14%, NS1 inh -3%, SARS PLP yeast -1%, LASV entry inh -28% and RE007 growth inh 6%.
For COc1ccc2[nH]c(C(=O)O)c(NS(=O)(=O)c3ccc(Cl)s3)c2c1 the results were StopGo reporter -15%, Marburg entry inh 14%, Cruzain Triton -4.9%, Cruzain noTriton -10%, NS1 inh 5%, SARS PLP yeast 0%, LASV entry inh 10% and RE007 growth inh -5%.
Cc1ccc(N(C)S(=O)(=O)c2ccc3[nH]cc(C(=O)NCCCN4CCOCC4)c(=O)c3c2)cc1C was read as StopGo reporter -7%, NS1 inh -3%, SARS PLP yeast -5% and RE007 growth inh -2%.
OCC(C#CCN1CCCCC1)NCc1ccccc1 (stereo unspecified) was read as Marburg entry inh 1%, Cruzain Triton 2.3%, Cruzain noTriton 10%, NS1 inh -2%, SARS PLP yeast -15%, LASV entry inh inconclusive and RE007 growth inh 0%.
For S=C(NCC1CCCO1)c1ccc(Br)cc1 (stereo unspecified) the results were StopGo reporter 49%[activator], Marburg entry inh 4%, NS1 inh -13%, SARS PLP yeast -11%, LASV entry inh inconclusive and RE007 growth inh -10%.
CC(=O)OC(C(=O)NC1CCCCC1)c1ccccc1Cl (stereo unspecified) was read as StopGo reporter -1%, NS1 inh -2%, SARS PLP yeast 0% and RE007 growth inh 2%.
Screening O=C(Nc1ccc(Br)cc1)c1cc(-c2ccc3c(c2)OCO3)on1 returned StopGo reporter 20%, Marburg entry inh 13%[46.1 µM], NS1 inh -4%, SARS PLP yeast -3%, LASV entry inh 6% and RE007 growth inh 12%.
O=c1cc(Nc2ccc3c(c2)OCO3)[nH]c(=O)n1-c1ccc(Br)cc1 was read as Marburg entry inh inconclusive, Cruzain Triton -1.5%, Cruzain noTriton inconclusive, NS1 inh inconclusive, SARS PLP yeast 17%, LASV entry inh -38% and RE007 growth inh 0%.
`CCOC(=O)N1CCN(Cc2nc3cc(NC(=O)c4ccco4)ccc3n2C)CC1` gave StopGo reporter -1%, NS1 inh -17%, SARS PLP yeast -1% and RE007 growth inh 6%.
`COc1ccc(S(=O)(=O)Nc2ccccc2C(=O)NCc2ccco2)cc1` gave StopGo reporter 8%, Marburg entry inh 9%, Cruzain Triton inconclusive, Cruzain noTriton inconclusive, NS1 inh 3%, SARS PLP yeast -2%, LASV entry inh 13% and RE007 growth inh -16%.
`CC(NC(=O)CSC(=S)N(C)C)C12CC3CC(CC(C3)C1)C2` (stereo unspecified) gave StopGo reporter -10%, Marburg entry inh -13%, Cruzain Triton -4.9%, Cruzain noTriton 17%, NS1 inh -6%, SARS PLP yeast 20%, LASV entry inh -20% and RE007 growth inh 16%.
`O=S1(=O)CCC(N=Nc2c(O)n(Cc3ccccc3)c3ccccc23)C1` (stereo unspecified) gave StopGo reporter -4%, NS1 inh -5%, SARS PLP yeast -3% and RE007 growth inh -8%.
`Cc1ccc2c(c1)-c1nc3ccccc3cc1C2=NC1CCCCC1` gave StopGo reporter inconclusive, Marburg entry inh inconclusive, Cruzain Triton -9.9%, Cruzain noTriton inconclusive, NS1 inh 4%, SARS PLP yeast inconclusive, LASV entry inh inconclusive and RE007 growth inh 2%.
For COc1ccc(-n2nc(C(=O)NCC(=O)NCCCN3CCN(C)CC3)c3ccccc3c2=O)cc1OC the results were StopGo reporter 3%, Marburg entry inh 1%[46.1 µM], NS1 inh 7%, SARS PLP yeast -2%, LASV entry inh 14%[46.1 µM] and RE007 growth inh 29%.
Screening COc1ccc(CCNC(=O)CCn2cccc2)cc1OC returned StopGo reporter 25%, Marburg entry inh 2%, Cruzain Triton 2.2%, Cruzain noTriton 4%, NS1 inh 2%, SARS PLP yeast 5%, LASV entry inh -10% and RE007 growth inh 15%.
`O=C(Nc1cccc(NS(=O)(=O)c2ccc(S(=O)(=O)NC3CC3)cc2)c1)c1ccccn1` gave StopGo reporter 4%, Marburg entry inh 5%&5%, Cruzain Triton -6.8%, Cruzain noTriton 4%, NS1 inh -24%, SARS PLP yeast 14%, LASV entry inh -3% and RE007 growth inh -6%.
For CN1CCC(=O)N(CCSc2ccc(Br)cc2)CC1 the results were StopGo reporter 28%, NS1 inh 4%, SARS PLP yeast -1% and RE007 growth inh 58%.
`O=C(Nc1nnc(-c2ccccc2)s1)c1cc(S(=O)(=O)N2CCOCC2)c(Cl)cc1Cl` gave StopGo reporter 24%, Marburg entry inh -5%, Cruzain Triton -15%, Cruzain noTriton -18%, NS1 inh -5%, SARS PLP yeast 0%, LASV entry inh 7% and RE007 growth inh -14%.

A section from the list above:
Screening O=C(Nc1ccc(Br)cc1)c1cc(-c2ccc3c(c2)OCO3)on1 returned StopGo reporter 20%, Marburg entry inh 13%[46.1 µM], NS1 inh -4%, SARS PLP yeast -3%, LASV entry inh 6% and RE007 growth inh 12%.
O=c1cc(Nc2ccc3c(c2)OCO3)[nH]c(=O)n1-c1ccc(Br)cc1 was read as Marburg entry inh inconclusive, Cruzain Triton -1.5%, Cruzain noTriton inconclusive, NS1 inh inconclusive, SARS PLP yeast 17%, LASV entry inh -38% and RE007 growth inh 0%.

(next part)
Cc1cc(NC(=O)CSc2ccc3nnc(-c4cccc(F)c4)n3n2)no1 was read as Marburg entry inh 28%, Cruzain Triton -2.5%, Cruzain noTriton -5%, NS1 inh -1%, SARS PLP yeast 2%, LASV entry inh -10% and RE007 growth inh 5%.
O=C(Cn1nnc(-c2ccccc2)n1)NC1CCS(=O)(=O)C1 (stereo unspecified) was read as StopGo reporter -2%, Marburg entry inh -17%, SARS PLP yeast 9%, LASV entry inh 7% and RE007 growth inh 6%.
Cc1c(NC(=S)NC(=O)C(c2ccccc2)c2ccccc2)cccc1C(=O)O was read as StopGo reporter 1%, Marburg entry inh 17%, Cruzain Triton 1.0%, Cruzain noTriton 17%, NS1 inh 0%, SARS PLP yeast 5%, LASV entry inh 21% and RE007 growth inh 6%.
`CCn1nnnc1SCC(=O)c1ccc(NC(C)=O)cc1` gave StopGo reporter -2%, Marburg entry inh -9%[46.1 µM], Cruzain Triton 2.9%, Cruzain noTriton -11%, NS1 inh 2%, SARS PLP yeast 8%, LASV entry inh 5% and RE007 growth inh 11%.
COCCNCCCOc1ccc(Cl)cc1Br was read as StopGo reporter -18%, NS1 inh -4%, SARS PLP yeast 0% and RE007 growth inh -7%.
Screening Cn1c(=O)c(/C(N)=N/OC(=O)c2ccccc2)cn(-c2ccccc2)c1=O returned StopGo reporter -17%, Marburg entry inh inconclusive, NS1 inh 3%, SARS PLP yeast 0%, LASV entry inh inconclusive and RE007 growth inh 19%.
`COc1ccc(C[C@@H]2CN3C(=NC[C@@H]3C)N2C[C@H](C)NC(=O)CCC2CCCCC2)cc1` gave StopGo reporter 0%, NS1 inh 0%, SARS PLP yeast -1% and RE007 growth inh 1%.
For CCOC(=O)C1=C(CNCc2ccccc2Cl)NC(=O)NC1c1cccc([N+](=O)[O-])c1 (stereo unspecified) the results were StopGo reporter -16%, Marburg entry inh inconclusive, SARS PLP yeast 0%, LASV entry inh -4%[46.1 µM] and RE007 growth inh 10%.
`CCOC(=O)C(C)Oc1ccc(=O)n(-c2ccccc2)n1` (stereo unspecified) gave StopGo reporter -3%, Marburg entry inh 20%, Cruzain Triton 3.0%, Cruzain noTriton -2%, NS1 inh 1%, SARS PLP yeast 0%, LASV entry inh -1% and RE007 growth inh 13%.
CN(C)c1ccc(N=Nc2ccc(S(N)(=O)=O)cc2)cc1 was read as StopGo reporter 28%, Marburg entry inh -2%[46.1 µM], NS1 inh inconclusive, SARS PLP yeast 2% and RE007 growth inh 20%.
For COC(=O)c1nn(-c2ccc(OC)cc2)c(=O)cc1Oc1ccccc1 the results were StopGo reporter -1%, Marburg entry inh 1%, Cruzain Triton 4.1%, Cruzain noTriton 0%, NS1 inh 1%, SARS PLP yeast 5%, LASV entry inh -1% and RE007 growth inh -12%.
`O=C1CN(C(=O)CNC(=O)c2ccccc2Cl)c2ccccc2N1` gave StopGo reporter 10%, Marburg entry inh 18%[46.1 µM], SARS PLP yeast 1%, LASV entry inh -8% and RE007 growth inh -6%.
Screening COc1ccc(NCC(=O)Nc2cc(S(=O)(=O)N3CCOCC3)ccc2N2CCOCC2)c(OC)c1 returned StopGo reporter 0%, NS1 inh -1%, SARS PLP yeast 0% and RE007 growth inh 13%.
Screening CN1C(=S)SC2CS(=O)(=O)CC21 (stereo unspecified) returned StopGo reporter 2%, Marburg entry inh 3%[46.1 µM], NS1 inh 3%, SARS PLP yeast 0%, LASV entry inh 3% and RE007 growth inh 4%.

Screens: PubChem, National Center for Advancing Translational Sciences (NCATS)
